High-throughput results: PubChem, several laboratories
FGF22 binding: binders of human FGF22 protein, primary screen, FGF22 synaptogenesis inhibitor project, biophysical, thermal shift, single point. calls only at 9.99 µM. AID 651658, 2012. Fibroblast growth factor 22 (Homo sapiens), Q9HCT0. 340,000 tested, 1.5% active. recombinant FGF22 thermal shift, SYPRO orange fluorescence; percent of sucrose octasulfate shift, DMSO zero;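 active = melting point raised past a set limit in the mean and every replicate; inconclusive = no clear call; three in four hits are not shown here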
Target sequence (Q9HCT0 whole entry, looked up): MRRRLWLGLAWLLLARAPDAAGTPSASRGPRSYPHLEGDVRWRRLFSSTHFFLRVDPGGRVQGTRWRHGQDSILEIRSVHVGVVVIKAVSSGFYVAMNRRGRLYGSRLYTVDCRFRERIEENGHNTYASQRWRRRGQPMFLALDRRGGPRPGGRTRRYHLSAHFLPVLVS
RanGTP-Impb inh: inhibitors of RanGTP-importin-beta interaction, primary screen, biochemical, FRET, CFP-Ran, YFP-importin-beta, homogeneous. Ran GTPase (GTP-bound) - importin-beta complex. cell-free CFP-Ran/YFP-importin-beta FRET ratio. inhibition, % (no concentration beside the values). 300,000 tested, 1.1% active;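 active = most replicates above 15%; inconclusive = exactly half above 15%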;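 note: 0% = DMSO wells and 100% = Ran loaded with GDP instead of GTP; wells of about 40 µL received 100 nL stock; the first replicate is given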
E coli growth: E. coli growth inhibition, primary screen, OD600 | Escherichia coli growth, 23 h; active compounds read low | OD600 absorbance (test concentration not listed) | 330,000 tested, 0.21% active;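 active = OD600 absorbance below the run mean of sample wells minus 3.6 SD, in any replicate, cut at about 0.56 in these data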;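 note: stock transfer was 300 nL into about 60 µL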
UCH37 inh: inhibitors of human UCH37 deubiquitinase, primary screen, biochemical, Ub-AMC cleavage, fluorescence. Ubiquitin carboxyl-terminal hydrolase isozyme L5 (Homo sapiens), Q9Y5K5. purified proteasome/UCH37. inhibition, % (test concentration not listed). 330,000 tested, 0.33% active. AID 588478, 2011;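 active = mean of two replicates above 20%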;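 note: 0% = compound-free wells with enzyme and 100% = wells lacking proteasome; stock transfer was 100 nL into about 20 µL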
Target sequence (Q9Y5K5 whole entry, looked up): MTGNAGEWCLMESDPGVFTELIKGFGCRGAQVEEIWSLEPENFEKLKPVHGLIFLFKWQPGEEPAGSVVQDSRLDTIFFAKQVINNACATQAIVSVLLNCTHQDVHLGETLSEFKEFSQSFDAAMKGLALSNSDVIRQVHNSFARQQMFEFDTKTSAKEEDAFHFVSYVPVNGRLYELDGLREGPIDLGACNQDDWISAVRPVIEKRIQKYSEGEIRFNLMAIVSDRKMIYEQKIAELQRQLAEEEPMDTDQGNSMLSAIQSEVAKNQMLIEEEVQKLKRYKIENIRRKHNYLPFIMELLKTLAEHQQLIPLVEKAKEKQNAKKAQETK
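System: Proteasome-associated human UCH37 deubiquitinase; Input: 0.15 nM proteasome in added enzyme buffer; Also added: Ub-AMC substrate from 1 µM stock; Incubation: 30 min compound-proteasome preincubation then 25 min substrate reaction, room temperature; Detection: fluorescence, ex 355 nm, em 460 nm; Read-out: % inhibition of Ub-AMC cleavage fluorescence; Benchmarks: no-proteasome and no-compound wells.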
AF4-AF9 inh: inhibitors of AF4 peptide binding to AF9, primary screen, biochemical, AlphaScreen, biotin-AF4 peptide, FLAG-AF9, single point; Protein AF-9 (Homo sapiens), P42568; inhibition, % at 10 µM; 350,000 tested, 0.47% active; AID 651704, 2012;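 active = every replicate reaching a set inhibition limit, whatever the replicate mean, cut at about 25% in these data; inconclusive = mean inhibition reaches that limit but some replicates miss it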;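 note: 0% = plate neutral control median and 100% = total signal loss; the record names both 10 and 1 µM as test concentration; the first replicate is given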
Target sequence (P42568 whole entry, looked up): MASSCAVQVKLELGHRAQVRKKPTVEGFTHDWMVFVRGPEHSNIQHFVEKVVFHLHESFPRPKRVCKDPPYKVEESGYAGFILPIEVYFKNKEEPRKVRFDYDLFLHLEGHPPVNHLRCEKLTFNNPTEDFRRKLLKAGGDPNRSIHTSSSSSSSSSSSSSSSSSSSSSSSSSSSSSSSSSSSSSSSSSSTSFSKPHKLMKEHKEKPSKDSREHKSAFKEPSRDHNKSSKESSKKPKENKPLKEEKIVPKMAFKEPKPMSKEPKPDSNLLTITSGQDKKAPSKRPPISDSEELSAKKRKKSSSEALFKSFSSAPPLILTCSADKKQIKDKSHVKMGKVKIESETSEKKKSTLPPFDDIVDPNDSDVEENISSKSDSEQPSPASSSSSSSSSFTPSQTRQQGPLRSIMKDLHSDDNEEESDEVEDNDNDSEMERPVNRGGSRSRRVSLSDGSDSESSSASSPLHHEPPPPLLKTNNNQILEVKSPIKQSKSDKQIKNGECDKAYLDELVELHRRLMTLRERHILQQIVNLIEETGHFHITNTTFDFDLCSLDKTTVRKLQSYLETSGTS
HNF4A DNA FP: change in binding of human HNF4A to DNA, primary screen, biochemical, fluorescence polarization, FITC-DNA. Hepatocyte nuclear factor 4-alpha (Homo sapiens), P41235. 1 h. activity change, % at 10 µM. 360,000 tested, 0.3% active. AID 1224865, 2016; in the data active = activity change above about 30%, passing the limit was not always enough;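 note: controls were the assay level and a saturating level of protein; the project sought stronger binding though the title names inhibitors; some compounds called inactive have numbers as strong as hits; positive values seem to mean higher polarization but the record does not say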
Vif A3G: inhibitors of Vif binding to APOBEC3G peptide, primary screen, biochemical, TR-FRET, GST-Vif 1-94, biotin-A3G peptide, dose response retest (AID 1117319); Virion infectivity factor (Human immunodeficiency virus type 1 group M subtype B (isolate …; TR-FRET GST-Vif / biotin-A3G peptide binding; higher % means a stronger effect; test concentration not given here; strong numbers were not always called active; one-dose inhibition, %; IC50 in µM for titrated hits; 260,000 tested, 0.57% active;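 active = above the screen mean plus three standard deviations and confirmed in dose response; inconclusive = results disagree or hit not tested in dose response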;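 note: Vif residues 1-94 fused to GST binding biotinylated APOBEC3G peptide 110-148; 0% = full assay without inhibitor and 100% = GST in place of GST-Vif; retest series ran down from 100 µM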
* marks the source's active call; other numbers are inactive results; i = inactive; ? = inconclusive; / = not tested or not shown; & = joins results of further samples.

SMILES	FGF22 binding	RanGTP-Impb inh	E coli growth	UCH37 inh	AF4-AF9 inh	HNF4A DNA FP	Vif A3G
CC(C)CCN1C(=O)CCC1(C)C(=O)NC1CCCCCC1 (centres undefined)	i	-0.1	0.73	0.2	-7.5	-1.4	1%
Fc1cccc(Cl)c1CSc1nnc(-c2ccncc2)o1	i	0.7	0.65	2.0	-0.5	1.8	1%
CC(C)Cc1nnc(NC(=O)CCC(=O)N2CCN(c3ccc(F)cc3)CC2)s1	i	0.3	0.69	3.0	-1.6	10	/
C[C@H](CO)N1C[C@H](C)[C@@H](CN(C)C(=O)Nc2ccccc2)Oc2c(NC(=O)Cc3ccccc3)cccc2C1=O	/	/	0.77	-1.5	/	-0.4	/
CCOc1cc(C(=O)N(C)CC(=O)Nc2cccc3ccccc23)ccc1OC	i	/	0.68	0.5	1.0	3.3	2%
O=C(COC(=O)Cc1ccccc1F)NCCc1ccccc1	i	/	0.67	3.2	-2.9	-3.5	-13%
Cc1csc(Nc2cccc3ccccc23)n1	i	1.0	0.68	0.0	7.9	-5.1	?
Cc1nc(SCC(=O)N2CC(=O)Nc3ccccc32)nc(C)c1C	i	0.4	0.68	2.2	-3.7	4.1	-6%
CCc1ccc(NC(=O)Nn2cnnc2)cc1	i	5.2	0.71	-1.4	-9.9	-1.1	4%
COC(=O)c1ccc(Nc2nc3ccc(C)cc3n3cnnc23)cc1	i	5.1	0.71	-47	?	17	-1%
O=C(COC(=O)c1nsc(Cl)c1Cl)NC1CCCCC1	i	2.7	0.68	4.1	3.0	-0.8	/
COc1cc(Br)cc(C(=O)N2CCc3ccccc32)c1OC	i	/	/	/	0.2	-1.4	-6%
COc1ccccc1N1CCN(C(=O)COc2cc(C)ccc2C)CC1	i	0.5	0.74	3.1	2.0	-1.5	/
CNS(=O)(=O)c1cccc(C(=O)OCC(=O)Nc2sc3c(c2C#N)CCCCC3)c1	i	-3.3	0.65	0.8	0.9	1.6	-1%
O=C(CN(Cc1ccccc1Cl)C(=O)CNS(=O)(=O)c1ccccc1)NCC1CCCO1 (centres undefined)	i	2.5	0.67	0.8	2.0	4.3	5%
COc1cc(NC(=O)c2nn(C)c3c2CS(=O)(=O)c2ccccc2-3)cc(OC)c1	i	0.3	0.72	-1.2	-1.4	0.6	/
O=C(CSc1ncnc2c1nnn2Cc1ccc(F)cc1)NC1CCCCC1	/	4.3	0.69	3.1	-1.4	-2.5	/
COc1ccc(N(CCN2C(=O)c3ccccc3C2=O)C(=O)c2cccc([N+](=O)[O-])c2)cc1	i	-0.5	0.69	4.8	9.9	2.2	/
COc1ccc(Cl)cc1S(=O)(=O)N1CCCC(C(=O)NCc2ccccc2)C1 (centres undefined)	i	/	0.7	4.8	-4.4	0.1	/
Clc1cccc(CN2CCC(Cc3ccccc3)CC2)c1	/	-1.4	0.62	0.1	/	-0.4	8%
CC1CCCCC1NC(=O)Cn1cnc2sccc2c1=O (centres undefined)	i	/	0.69	4.8	2.1	3.2	-2%
Cc1[nH]c(=O)[nH]c(=O)c1/C=C/C(=O)OCC(C)C	i	-0.5	0.66	3.8	0.1	1.8	3%
CCOC(=O)CC1CCCCN1Cc1nc(-c2ccc(F)c(OC)c2)oc1C (centres undefined)	/	/	0.68	0.0	/	-3.0	0%
Cn1c(SCC(=O)c2ccc(F)cc2)nnc1-c1ccccn1	i	8.7	0.68	0.5	-8.5	0.1	6%
Nc1c(Cl)ncnc1Nc1ccc(C(=O)O)cc1	i	/	/	/	-4.5	-3.8	-8%
Remaining list, next part.
SMILES	FGF22 binding	RanGTP-Impb inh	E coli growth	UCH37 inh	AF4-AF9 inh	HNF4A DNA FP	Vif A3G
CCOC(=O)C1=C(C)NC(=O)NC1C1CC=CCC1 (centres undefined)	/	2.2	/	/	/	15	-2%
CC(C)Cc1ccc(/C(=N/O)C(=O)O)s1	/	?	/	/	/	2.8	-3%
Cc1cccc(NC(=S)N2CCN(S(C)(=O)=O)CC2)c1	i	0.4	0.7	1.6	-1.9	1.9	3%
COCCN(Cc1nnc(-c2cccs2)o1)C(=O)c1cccc(S(=O)(=O)N2CCOCC2)c1	i	/	0.7	3.4	-0.1	-1.1	/
O=C(C[C@@H]1C/C=C\C[C@H](NC(=O)OCC2c3ccccc3-c3ccccc32)C(=O)O[C@H](c2ccccc2)CNC1=O)NCCO	i	/	/	2.2	2.8	1.1	/
CCc1nc(SCC(=O)N2c3ccccc3Sc3ccccc32)c2ccccc2n1	/	1.9	0.73	-0.5	/	-3.1	-3%
Cc1ccc(N2C(=O)C(Cl)=C(NCCO)C2=O)c(C)c1	/	-4.8	0.7	3.6	/	-4.1	1%
CCOC(=O)c1c(C)[nH]c(C(=O)COC(=O)[C@H](C)N2C(=O)C3CCCCC3C2=O)c1C (some centres undefined)	i	/	0.69	3.2	2.4	2.2	5%
O=C(COC(=O)c1cc(=O)c2ccccc2o1)NC1CCCCC1	i	5.9	0.69	3.3	-3.1	1.6	/
O=C(CN1C(=O)C2CC=CCC2C1=O)N1CCN(c2ccc([N+](=O)[O-])cc2)CC1 (centres undefined)	i	0.3	0.74	7.2	3.9	1.2	/
O=C(COc1ccc(Cl)cc1Cl)Nc1cccnc1	i	7.2	0.62	6.0	-2.4	-1.1	14%
Nn1c(SCc2cc([N+](=O)[O-])cc3c2OCOC3)nnc1-c1cccnc1	i	2.8	0.71	2.9	-0.5	0.7	-6%
CN(C(=O)CSc1nnc(Nc2ccccc2)s1)c1c(N)n(Cc2ccccc2)c(=O)[nH]c1=O	/	-2.5	0.79	2.3	/	0.4	9%
O=C(NC(=S)N1CCN(c2ccc([N+](=O)[O-])cc2)CC1)c1ccco1	i	0.8	0.73	5.5	-0.2	2.1	4%
COc1ccc(/C=N/NS(=O)(=O)c2ccc(F)cc2)cc1COc1cc(F)ccc1[N+](=O)[O-]	i	1.7	/	/	-1.4	1.1	-3%
Nc1nc(CCl)nc(N(c2ccccc2)c2ccccc2)n1	/	5.4	0.66	3.1	-0.3	-4.0	15%
Cc1c(-n2cc(C(=O)c3ccccc3O)cc(C#N)c2=O)c(=O)n(-c2ccccc2)n1C	/	-1.6	0.74	12	/	3.6	5%
O=C(CC(C(=O)c1ccccc1)c1ccccc1)c1ccccc1 (centres undefined)	i	/	0.69	0.5	-3.2	2.8	-7%
Cc1cc(C)cc(N(CC(=O)NCC2CCCO2)C(=O)CCC(=O)Nc2nccs2)c1 (centres undefined)	i	2.0	0.67	2.2	0.3	3.2	1%
COc1ccc(CCNC(=O)c2cc3cccc(OC)c3oc2=O)cc1OC	i	-5.0	0.67	3.0	-0.3	2.4	-10%
CNc1c(NS(=O)(=O)c2ccc(OC)cc2)c(=O)oc2ccccc12	i	1.4	0.72	-1.8	1.4	1.3	/
CCOC(=O)N1CCN(C(=O)CSCC(=O)Nc2nc(-c3ccc(OC)cc3)cs2)CC1	/	/	0.66	0.4	/	5.1	1%&-4%
O=C(Nc1cccnc1)c1cccc(NC(=O)c2ccco2)c1	/	0.6	0.66	1.0	/	0.3	3%
COc1cc2ncnc(NCc3ccc(F)cc3)c2cc1OC	i	1.5	0.71	4.1	-1.8	1.4	/
Cc1ccc(-c2nc(CNC(=O)c3ccco3)cs2)cc1	i	-3.3	0.67	3.8	-2.1	3.6	-3%
Additional results
SMILES	FGF22 binding	RanGTP-Impb inh	E coli growth	UCH37 inh	AF4-AF9 inh	HNF4A DNA FP	Vif A3G
Cc1cccc(CNC(=O)Cn2ccc3cc(S(=O)(=O)N4CCCC4)ccc32)c1	i	1.6	0.71	-1.8	2.1	3.0	-1%
CC(C)CN(CCOc1cccc(N2C(=O)C3=C(CCCC3)C2=O)c1)CC(C)C	/	-4.2	0.66	2.8	/	-1.1	-3%
O=C(NC(=S)Nc1ccccc1)c1csnn1	i	-0.9	0.66	1.3	-1.5	4.6	?
CCOC(=O)C(C(=O)N1CCOCC1)C1CCCCC1 (centres undefined)	/	0.7	0.63	1.2	/	2.5	-1%
N#C/C(=C(/O)CSc1n[nH]c(N)n1)c1nc2ccccc2[nH]1	i	4.1	0.71	5.5	-0.5	6.0	15%
CCn1ccnc1CNC(=O)C1CCC(=O)N(Cc2cccc(C(F)(F)F)c2)C1 (centres undefined)	i	-1.8	0.72	-2.0	0.2	-0.8	/
Cc1nc(NC(=O)c2ccccc2[N+](=O)[O-])sc1C(=O)N(C)C	/	2.3	0.71	5.0	/	1.9	-4%
CCCCOc1ccc(-c2ncc(C(=O)O)c(C)n2)cc1	/	-1.4	0.75	1.4	/	-1.4	2%
CCOC(=O)c1[nH]c2ccc(OC)cc2c1NC(=O)c1nonc1C	/	1.4	0.75	-4.6	/	1.7	0%
COCC(C)n1c(SCC(=O)NNC(=O)c2ccccc2)nc2ccccc2c1=O (centres undefined)	i	2.9	0.7	2.0	-1.0	4.2	12%
CNC(=O)NC(=O)CSc1nnc(-c2ccco2)n1Cc1ccccc1	/	0.3	0.69	2.2	/	-1.9	-5%
CC(CO)NS(=O)(=O)c1cccc(Cl)c1F (centres undefined)	i	/	/	/	2.7	6.6	-4%
Cc1cc2c(cc(C(=O)OCC(=O)NCc3ccco3)n2C)s1	/	6.6	0.66	3.5	/	-1.9	-43%
CC(Sc1nnc(NCc2ccccc2)s1)C(=O)Nc1ccc2c(c1)C(=O)c1ccccc1C2=O (centres undefined)	/	-0.2	0.73	6.6	/	3.0	/
CC(C)C(=O)NC(=S)Nc1ccccc1C(F)(F)F	/	3.7	0.72	-10	/	-1.4	-4%
CCn1c(=O)n(CC(=O)Nc2cc(OC)c(OC)c(OC)c2)c(=O)c2ccccc21	/	-0.9	0.66	2.1	/	1.2	0%
C#CCOCCOCCOCCNc1nc(N2CCN(C(=O)[C@H](CCCCN)n3cc(CCCC)nn3)CC2)nc(N2CCN(C(=O)[C@H](CCCCN)n3cc(CCC(=O)O)nn3)CC2)n1	i	/	/	-1.0	5.3	-4.3	/
CCCn1nc(NC(=O)COC)c2cc3cccc(C)c3nc21	i	38*	0.67	-43	-16	1.6	-4%
CC12CCC(C1)C(C)(C)C2OC(=O)c1ccccc1C(=O)O (centres undefined)	i	-4.0	0.66	4.5	-5.6	0.5	/
CCCCCCCCCCCCCCCC(=O)Nc1ccn(C2OC(CO)C(O)C2O)c(=O)n1 (centres undefined)	i	/	/	/	-2.5	5.7	-2%

Complete entries from above. Values in the order: FGF22 binding	RanGTP-Impb inh	E coli growth	UCH37 inh	AF4-AF9 inh	HNF4A DNA FP	Vif A3G
C#CCOCCOCCOCCNc1nc(N2CCN(C(=O)[C@H](CCCCN)n3cc(CCCC)nn3)CC2)nc(N2CCN(C(=O)[C@H](CCCCN)n3cc(CCC(=O)O)nn3)CC2)n1 in the list: i	/	/	-1.0	5.3	-4.3	/
CC(CO)NS(=O)(=O)c1cccc(Cl)c1F (centres undefined) in the list: i	/	/	/	2.7	6.6	-4%
CC(Sc1nnc(NCc2ccccc2)s1)C(=O)Nc1ccc2c(c1)C(=O)c1ccccc1C2=O (centres undefined) in the list: /	-0.2	0.73	6.6	/	3.0	/
Cc1nc(NC(=O)c2ccccc2[N+](=O)[O-])sc1C(=O)N(C)C in the list: /	2.3	0.71	5.0	/	1.9	-4%
CC12CCC(C1)C(C)(C)C2OC(=O)c1ccccc1C(=O)O (centres undefined) in the list: i	-4.0	0.66	4.5	-5.6	0.5	/

Only part of the results is shown. The share of hits here may be higher or lower than overall.
